Assay outcomes from PubChem BioAssay.
TAR Tat displ = HIV-1 TAR-Tat binding disruption; 0.6% of 100,000 active; HIV-1 TAR RNA, Tat peptide displacement FRET; stronger effect = higher value; z-score (no concentration beside the values);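 also: score is relative to mean and SD of negative controls; some compounds called inactive have numbers as strong as hits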
CDC25B CDK2 inh = human CDC25B-CDK2/CyclinA binding inhibition. HTRF CDC25B-CDK2/CyclinA binding, anti-His/anti-Flag; stronger effect = higher value. z-score (test concentration not listed). 0.72% of 94,000 active. AID 1259370;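 also: score is relative to mean and SD of negative controls; strong numbers were not always called active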
* hit, by the source's call; nt = not tested or not shown.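 The calls were made as follows: active = z-score from 3 up in half or more of its runs; inactive = the rest.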

canonical_smiles | TAR Tat displ | CDC25B CDK2 inh
Cn1c(C2=C(O)CN(c3ccc(Br)cc3)C2=N)nc2ccccc21 | 1.7 | -4.9
Cc1[nH]c(C)c(S(=O)(=O)NC(C)(C)C)c1C(=O)N1CCCC1 | -0.16 | nt
Cc1ccc(-c2onc(C)c2C)cc1S(=O)(=O)N(C)Cc1ccco1 | 0.27 | nt
Cc1ccc(-n2c(N)c(C#N)c3nc4ccccc4nc32)cc1C | 0.78 | 1.1
CCOc1ccccc1NC1c2ccccc2C(=O)N1c1ccc(Cl)cn1 (configuration not stated) | 0.79 | -0.67
CN(Cc1ccccc1)C(=O)C(CCS(C)(=O)=O)N1Cc2ccccc2C1=O (configuration not stated) | 1.1 | nt
O=C(NC(=S)Nc1ccc(-c2nc3ccccc3o2)c(O)c1)c1ccc(F)cc1 | nt | -2.1
O=C(Nc1ccc(-n2cncn2)cc1)c1ccccc1N1CCOCC1 | nt | -1.5
O=C(Oc1ccc2c(=O)c(-c3ccc(Cl)cc3)c(C(F)(F)F)oc2c1)N1CCOCC1 | 2 | -1.2
COc1cccc(-c2coc3cc4oc(=O)c5ccccc5c4cc23)c1 | 2.4 | -1.7
O=C1C=C(NC2Cc3ccccc3C2)CC(c2ccccc2Cl)C1 (configuration not stated) | -1.3 | 0.26
CC1C(=O)CC(c2ccc(Cl)cc2)NC1c1ccc(Cl)cc1 (configuration not stated) | 0.44 | -0.35
NC(=O)c1cc(S(=O)(=O)NCC2CCN(Cc3ccco3)CC2)cs1 | 0.13 | nt
COc1ccc(C(N)=O)cc1OC(C)C | nt | -1.9
O=C(c1cc(S(=O)(=O)N2CCCCC2)c[nH]1)N1CCc2ccccc2C1 | 3.7 | nt
CCn1c(C)nc2c(sc3nc4c(cc32)COC(C)(C)C4)c1=O | -0.98 | nt
CCSc1nnc(NC(=O)Cc2csc(C)n2)s1 | 1.1 | -2.4
CCC(C)OC(=O)c1c(NC(=O)c2nc3ncccn3n2)sc2c1CCCC2 (configuration not stated) | 0.86 | -2.8
COC(=O)C1C(c2ccccc2)c2c([nH][nH]c2=O)CC1(C)O (configuration not stated) | 2.2 | -0.39
COc1ccccc1N1C(=O)CC(N2CCN(c3ccc(F)cc3)CC2)C1=O (configuration not stated) | 0.77 | -0.09
O=C(NCC1CCCO1)c1nn2c(C(F)(F)F)cc(-c3cccs3)nc2c1Cl (configuration not stated) | -1.7 | -3
O=C(Cn1c(=O)n(CC(=O)NC2CCCCC2)c2ccccc21)NC1CCCCC1 | 0.34 | -3.8
CS(=O)(=O)Nc1ccc(C2=NN(C(=O)CCCC(=O)O)C(c3cccc(F)c3)C2)cc1 (configuration not stated) | 1.2 | -2
O=C1C2C(c3ccc(F)cc3)OC3(C(=O)c4ccccc4C3=O)C2C(=O)N1C1CCCCC1 (configuration not stated) | 0.13 | -1.1
COC(=O)C1=C(OC(=O)COc2ccccc2)c2ccccc2S(=O)(=O)N1C | -0.44 | -1.7
Cc1cc(C)c2c(=O)n(CC(=O)NC3CCCC3)sc2n1 | 0.41 | -0.2
COc1ccc(Br)cc1C1CC(=O)N2CN(C3CCCCC3)CSC2=C1C#N (configuration not stated) | -0.3 | -0.77
O=C1SC(c2ccccc2)=N/C1=C/c1ccco1 | 0.34 | -1.9
Nc1nc(-c2ccc(Cl)cc2)nn1C(=O)c1ccccn1 | 0.92 | 0.58
Cc1[nH]nc2c1C(c1ccccn1)N(C)C2=O (configuration not stated) | 0.56 | -0.18
CC1CC(C)CN(c2nc3nonc3nc2N2CC(C)CC(C)C2)C1 (configuration not stated) | 0.68 | -0.83
CCCCc1nn2c(=O)cc(CS(=O)(=O)c3nc(-c4ccc(C)cc4)n[nH]3)nc2s1 | 2.3 | nt
Cn1c(=O)c2cc(C(=O)NCC3CCCO3)sc2c2ccccc21 (configuration not stated) | 0.81 | -1.3
O=C(NC1CCCC1)c1cccn2c(-c3ccc(F)cc3)nnc12 | 1.1 | nt
CC(=O)N1c2ccc(S(=O)(=O)NCC3CCC(C(=O)NCc4ccc(C)o4)CC3)cc2CC1C (configuration not stated) | -0.32 | nt
CCOC(=O)N1CCN([C@H]2CS(=O)(=O)C[C@@H]2S(=O)(=O)c2ccc(F)c(C)c2)CC1 | 1.6 | -1.2
CCOC(=O)NC(Nc1ccc(F)cc1)(C(=O)OCC)C(F)(F)F (configuration not stated) | nt | -1.4
Cc1nn2c(=O)cc(COC(=O)COc3ccc(C)c(C)c3)nc2s1 | -0.71 | nt
CN(CCCNC(=O)C1CCN(c2nc3cccnc3s2)CC1)C1CCCCC1 | 0.74 | nt
O=C(O)c1c(Cl)c2cc(Cl)ccc2[nH]c1=O | nt | -1.6
Cc1nn(-c2ccc(N3CCCCC3)nn2)c(C)c1CCC(=O)Nc1ccc2c(c1)OCO2 | -1.2 | nt
COC(=O)c1cc(C)nc2c1c(=O)n(C)c(=O)n2C | 0.14 | -0.65
CSc1nc(C)cc(Nc2ccc(S(N)(=O)=O)cc2)n1 | 0.76 | -1.1
CSc1sc(C(N)=O)cc1C#N | nt | -0.62
COc1cc(NC(=O)C2=C(C)OCCS2)c(Cl)cc1C(=O)N1CCCC1 | 1.2 | nt

Molecules from the list above containing two or more sulfur atoms, in the order listed:
canonical_smiles | TAR Tat displ | CDC25B CDK2 inh
NC(=O)c1cc(S(=O)(=O)NCC2CCN(Cc3ccco3)CC2)cs1 | 0.13 | nt
CCSc1nnc(NC(=O)Cc2csc(C)n2)s1 | 1.1 | -2.4
CCCCc1nn2c(=O)cc(CS(=O)(=O)c3nc(-c4ccc(C)cc4)n[nH]3)nc2s1 | 2.3 | nt
CCOC(=O)N1CCN([C@H]2CS(=O)(=O)C[C@@H]2S(=O)(=O)c2ccc(F)c(C)c2)CC1 | 1.6 | -1.2
CSc1nc(C)cc(Nc2ccc(S(N)(=O)=O)cc2)n1 | 0.76 | -1.1
CSc1sc(C(N)=O)cc1C#N | nt | -0.62

The main list resumes, repeating the six entries before the break.
canonical_smiles | TAR Tat displ | CDC25B CDK2 inh
O=C(O)c1c(Cl)c2cc(Cl)ccc2[nH]c1=O | nt | -1.6
Cc1nn(-c2ccc(N3CCCCC3)nn2)c(C)c1CCC(=O)Nc1ccc2c(c1)OCO2 | -1.2 | nt
COC(=O)c1cc(C)nc2c1c(=O)n(C)c(=O)n2C | 0.14 | -0.65
CSc1nc(C)cc(Nc2ccc(S(N)(=O)=O)cc2)n1 | 0.76 | -1.1
CSc1sc(C(N)=O)cc1C#N | nt | -0.62
COc1cc(NC(=O)C2=C(C)OCCS2)c(Cl)cc1C(=O)N1CCCC1 | 1.2 | nt
Cc1nc(-c2cccs2)c(CC(=O)NC2=NCCS2)s1 | -1.8 | -1.6
Cc1cc(NC(=O)CCCn2nnc3cc(S(=O)(=O)N4CCCC4)ccc32)no1 | 0.87 | nt
COc1ccc(-c2c(C)nn3c(-c4ccccc4)cc(C)nc23)cc1 | 1.2 | -1.8
Cc1ccc(-c2nc(SCC(=O)Nc3nnc(C)s3)c3c(=O)n(C)c(=O)n(C)c3n2)cc1 | 1.5 | nt
Cc1cc(NC(=O)CSc2ccsc2[N+](=O)[O-])ccc1Br | -0.7 | nt
COCCCN1C(=O)c2[nH]nc(-c3ccccc3O)c2C1c1ccc(OCc2ccccc2)cc1 (configuration not stated) | 0.25 | -1.1
CC(=O)Nc1nc(-c2cccs2)nc2c1c(=O)oc1ccccc12 | nt | -0.02
COC(=O)c1cc(S(=O)(=O)Nc2cc(OC)cc(OC)c2)cn1C | 2 | -1.4
CN1C(C(=O)NCc2ccc(F)cc2)=CC(c2ccco2)=NS1(=O)=O | 1.2 | -3.3
Cc1nc(-c2cccs2)sc1-c1ccnc(=S)[nH]1 | nt | -1.2
O=C(CCc1nc2ccccc2[nH]c1=O)N1CCC2(CC1)OCCO2 | nt | -1.5
Cc1cc(C)cc(NS(=O)(=O)c2c(C)nc3sc(C)cn3c2=O)c1 | -0.93 | nt
CCCn1c2ccccc2c2cnn(CC(=O)Nc3nnc(CC)s3)c(=O)c21 | 0.62 | nt
CC1=C(C(=O)OCc2ccccc2)C(c2ccncc2)C2=C(CC(C)(C)CC2=O)N1 (configuration not stated) | 1 | 0.17
Cc1ccc(C2CC(=O)c3cnc(N4CC(C)CC(C)C4)nc3C2)cc1 (configuration not stated) | -0.2 | -1.9

Remaining list, next part.
structure,TAR Tat displ,CDC25B CDK2 inh
CCN(CC)c1ccc(NC(=O)CCc2c(C)nc3ncnn3c2C)c(C)c1,nt,-0.67
COc1ccc(S(=O)(=O)N2CCOCC2)cc1-c1nnc2c3ccccc3c(C)nn12,nt,0.43
Cc1ccc(S(=O)(=O)N2CCCC2c2cccs2)cc1C (configuration not stated),1.4,-2.2
CCCOC(=O)C1=C(C)NC2=C(C(=O)CC(C)(C)C2)C1c1cccnc1 (configuration not stated),3.2,-1.4
N#Cc1c[nH]n2c(NC3CCCC3)c(-c3ccc(Br)cc3)nc12,-0.45,-0.41
O=C(c1[nH]nc2c1CCc1ccccc1-2)N1CCc2[nH]nc(-c3ccccc3)c2C1,-0.89,nt
O=c1[nH]c(Nc2ccc3c(c2)OCCO3)nnc1Cc1ccccc1,0.73,-0.74
Cc1ccc(Nc2c3c(nc4ncnn24)CCC3)c(Cl)c1,0.81,nt
COc1nccn(Cc2ccc(F)cc2)c1=O,2.7,-0.7
O=C(Nc1ccccc1Cl)c1ncoc1-c1cccs1,0.8,nt
CN(C(=O)Cn1cnc2onc(-c3ccc(Cl)cc3)c2c1=O)C1CCCCC1,0.53,nt
COc1ccc(-c2ccc(NS(=O)(=O)c3cc(C)c(C)cc3OC)cc2)nn1,-0.1,nt
Cn1c(=O)c(Sc2ccccc2)c(O)c2ccccc21,nt,-2.9
O=C1C(Oc2ccccc2)C(c2ccc(F)cc2)N1Cc1ccc2c(c1)OCO2 (configuration not stated),1.1,0.55
Cc1ccc(-c2noc3ncnc(NCCN4CCC(C)CC4)c23)cc1,1.7,nt
Cc1ccc(-c2noc(C(C)NC(=O)c3ccc(C(C)(C)C)cc3)n2)cc1 (configuration not stated),2.1,-1.1
O=C1NC(c2ccc(F)cc2)c2c1n[nH]c2-c1ccco1 (configuration not stated),-5.1,1.6
CSc1cccc(NC(=O)CSc2nnc(-c3ccncc3)o2)c1,1,-0.3
COc1ccc(C2CC(=O)NN2)cc1OC1CCCC1 (configuration not stated),nt,-2.3
Cc1[nH]c2ccccc2c1CCC#N,nt,-1.3
O=C(c1ccc(Br)cc1)N1N=C(c2ccccc2)CC1(O)C(F)(F)F (configuration not stated),nt,-0.56
CCOC(=O)c1c(C)[nH]c(C)c1S(=O)(=O)NCC(=O)N1CCn2c1nc1ccccc12,0.79,nt
O=C(c1ccc(S(=O)(=O)N2CCN(c3ccc(F)cc3)CC2)s1)N1CCCC1,0.99,nt
CCOC(=O)Cc1csc(NC(=O)c2sc(C)nc2C)n1,-0.63,-2.6
Cc1noc(COc2ccccc2)c1C(=O)Sc1ccc(F)cc1F,nt,-1.5
COC(=O)c1scc(-c2ccccc2)c1S(=O)(=O)N1CCC(O)CC1,0.97,nt
O=C(Oc1ccnc2cc(Cl)ccc12)N1CCCCC1,0.8,2
O=C(NNc1nc(-c2cc3ccccc3o2)cs1)c1ccc(Cl)cc1,nt,-2.5
O=C(CN1C(=O)c2cccnc2Oc2ccc(Cl)cc21)N1CCN(C(=O)c2ccco2)CC1,-0.5,nt
O=C(Nc1ccncc1)c1cc([N+](=O)[O-])ccc1SCCO,nt,-1.1

Compound profiles (already shown):
COc1cccc(-c2coc3cc4oc(=O)c5ccccc5c4cc23)c1 across the screens: TAR Tat displ: 2.4; CDC25B CDK2 inh: -1.7
COc1ccc(S(=O)(=O)N2CCOCC2)cc1-c1nnc2c3ccccc3c(C)nn12 across the screens: TAR Tat displ: nt; CDC25B CDK2 inh: 0.43

Following part.
structure,TAR Tat displ,CDC25B CDK2 inh
CCN1CCN(C(=O)Cn2c(=O)c3cccn3c3cccnc32)CC1,-0.58,nt
CC(C)(O)C#Cc1ccc(/C=N/O)cc1,nt,-1.4
COc1ccc(-n2c3c(c(SCc4ccccc4)nc2=O)CCC3)cc1,1.5,-1.7
CCCCCCCC1CC(CSc2ncn[nH]2)OC1=O (configuration not stated),nt,-1.6
O=C1CSc2ccc(S(=O)(=O)NCc3cccs3)cc2N1,2.7,nt

Outcome played no part in choosing rows. About 0.87% of those tested had a hit in this group.
